Assay outcomes from PubChem.
KCNQ2 enhance – potentiators of rat KCNQ2 potassium channel; CHO-K1 KCNQ2, FluxOR thallium flux fluorescence; stronger effect = higher value; B-score at 10 µM; AID 2239, 2010; Potassium voltage-gated channel subfamily KQT member 2 (Rattus norvegicus), O88943; 310,000 compounds, 0.54% hits;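 active = fluorescence ratio B-score at least 3 SD of library B-scores, with initial fluorescence B-score within 3 SD, cut at about 5.3 in these data; same plate scores as AID 2156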;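 note: B-score of peak minus minimum over baseline fluorescence ratio after K+ and Tl+ stimulus; positive B-score means potentiation of KCNQ2 with more thallium influx and brighter signal; only the inactives scoring about 0 or higher are listed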
Target sequence (O88943 whole entry, looked up): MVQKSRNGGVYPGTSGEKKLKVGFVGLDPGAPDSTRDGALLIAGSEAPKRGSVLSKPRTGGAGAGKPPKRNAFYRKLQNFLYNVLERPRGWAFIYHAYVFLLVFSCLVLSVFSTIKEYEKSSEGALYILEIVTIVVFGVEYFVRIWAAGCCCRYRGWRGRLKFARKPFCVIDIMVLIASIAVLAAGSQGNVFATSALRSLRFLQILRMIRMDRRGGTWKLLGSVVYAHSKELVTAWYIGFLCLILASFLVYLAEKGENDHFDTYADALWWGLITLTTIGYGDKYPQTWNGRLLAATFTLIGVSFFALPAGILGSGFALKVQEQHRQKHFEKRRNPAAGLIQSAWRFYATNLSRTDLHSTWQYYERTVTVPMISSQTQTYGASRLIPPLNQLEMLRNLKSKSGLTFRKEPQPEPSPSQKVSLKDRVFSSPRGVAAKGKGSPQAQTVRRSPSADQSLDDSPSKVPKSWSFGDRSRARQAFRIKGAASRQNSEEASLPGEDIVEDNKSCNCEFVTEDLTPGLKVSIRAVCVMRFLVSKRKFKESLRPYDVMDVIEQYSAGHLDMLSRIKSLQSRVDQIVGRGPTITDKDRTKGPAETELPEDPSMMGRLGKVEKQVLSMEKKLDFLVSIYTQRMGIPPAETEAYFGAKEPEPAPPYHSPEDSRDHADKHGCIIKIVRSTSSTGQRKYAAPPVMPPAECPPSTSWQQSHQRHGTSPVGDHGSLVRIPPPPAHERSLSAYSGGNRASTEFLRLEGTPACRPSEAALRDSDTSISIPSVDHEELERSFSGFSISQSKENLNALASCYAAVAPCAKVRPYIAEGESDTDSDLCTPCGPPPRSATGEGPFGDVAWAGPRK
KCNQ2 enhance baseline – further read-out of KCNQ2 enhance, marked with its call; B-score; compound at 10 µM; measured here: initial fluorescence intensity artifact check;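 brightness before thallium and not channel activity; 0 = typical well and far values either way flag optical interference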
An asterisk follows results filed as active.

SMILES | KCNQ2 enhance | KCNQ2 enhance baseline
CC(=O)C1=C(O)C(=O)N(c2ccc(O)cc2)C1c1cccc(F)c1 (stereo unspecified) | 0.67 | -0.75
Cc1ccc(C(=O)Nc2nccc(-c3cccs3)n2)cc1 | 2.05 | 0.09
Cn1c(=O)c2c(nc(N3CCCCCC3)n2CC(O)COc2ccccc2)n(C)c1=O (stereo unspecified) | 0.22 | 0.85
COCc1cc(C)nc(OCC(=O)N/N=C/c2cccc(OC)c2)c1C#N | 0.39 | 0.83
CN1CCN(C(=O)c2ccc(C3SCC(=O)N3Cc3ccco3)cc2)CC1 (stereo unspecified) | 1.14 | -0.38
COC(=O)c1cn(Cc2ccccn2)c(=O)c2ccccc12 | 0.47 | 0.06
O=C(Nc1ccc2c(c1)OCO2)Nc1ccc2c(c1)OCO2 | 0.01 | 0.31
CC(NC(=O)C(=O)N1CCOCC1)C(c1cccs1)N1CCN(c2ccccc2)CC1 (stereo unspecified) | 2.98 | -1.47
COCCN(CC(=O)NC1CCCCC1)C(=O)CCCC(=O)Nc1ccccn1 | 0.21 | 0.06
CC(=O)Nc1ccccc1-c1nc2ccccc2nc1OCC(=O)c1ccc(Cl)cc1 | 0.1 | -1.78
CCOC(=O)c1c(C)c(C(=O)NCCN2CCOCC2)c(C)n1CC | 1.14 | -0.81
Cc1cc(-c2ccccc2)nc(N/N=C/c2ccco2)n1 | 0.92 | -0.24
CC(C)C(NC(=O)OCc1ccccc1)C(=O)NC1CCCCC1 (stereo unspecified) | 0.07 | -0.56
O=C(CSC1=NCCS1)Nc1ccc(S(=O)(=O)N2CCCCCC2)cc1 | 0.12 | -1.07
CCOc1ccc(S(=O)(=O)N2CCCC(C(=O)NCc3ccco3)C2)cc1 (stereo unspecified) | 1.2 | 0.05
CCc1ccc(N2CCN(C(=O)c3ccc4c(c3)OCO4)CC2)cc1 | 0.66 | -0.16
O=C(C1CCN(S(=O)(=O)N2CCOCC2)CC1)N1CCN(Cc2ccccc2)CC1 | 1.38 | -0.67
COc1ccc(Cc2nc3ccc(C(=O)NC4CCOC4)cc3o2)cc1 (stereo unspecified) | 0.79 | -0.83
COc1ccc([N+](=O)[O-])c(OC)c1C(=O)NC(=O)Nc1nc(C)cc(C)n1 | 0.79 | 1.05
Cc1nc2ccccn2c1C(=O)N/N=C/c1cc(C)n(-c2ccc(Br)cc2)c1C | 0.09 | -1.52
CC(C)CC(c1nnnn1C(C)C)N1CCN(c2ccccc2)CC1 (stereo unspecified) | 0.13 | -0.83
Cc1nc(N)ncc1-c1ccc2c(c1)OCO2 | 0.08 | -0.69
COc1ccc(NC(=O)c2cccc(NC(=O)c3ccco3)c2)c(OC)c1 | 0.35 | -0.14
CCO[C@@H]1OC(C(=O)NC2CC2)=C[C@H](c2ccccc2)[C@H]1CCCO | 0.95 | 1.5
Cc1occc1C(=O)Nc1sc2c(c1C(N)=O)CCC(C(C)(C)C)C2 (stereo unspecified) | 0.04 | 1.27
CCc1ccccc1NC(=O)N1C2CCCC1CC(NC(C)=O)C2 (stereo unspecified) | 0.97 | 0.29
COC(=O)CSc1ncnc2c1cnn2Cc1ccccc1 | 0.51 | -1.24
CCOC(=O)N1CCN(C(=O)CN(C2CCCCC2)S(=O)(=O)c2ccc(F)cc2)CC1 | 1.66 | -0.12
COc1cccc(NC(=S)Nc2cccc3ccccc23)c1 | 0.36 | -0.16
COC(=O)CN1C(=S)N(C)C(=O)C1CC(=O)Nc1ccccc1 (stereo unspecified) | 1.38 | -0.63
COc1ccc(Cc2nnc(NS(=O)(=O)c3ccc([N+](=O)[O-])cc3)s2)cc1 | 0.58 | 1.71
COc1ccc(NC(=O)CS(=O)c2ccccc2Cl)cc1 (stereo unspecified) | 0.28 | -2.53
Cc1cccc(NC(=O)CSc2nnc(CNC(=O)c3ccco3)o2)c1C | 1.22 | 1.5
CCCCCCCOc1ccc(OC(=O)c2cccnc2)cc1 | 0.98 | -1.05
Cc1ccc(NC(=O)O/N=C/c2cccc([N+](=O)[O-])c2)cc1 | 1.06 | -1.64
CC(C)Oc1ccc(S(=O)(=O)N2CCOCC2)cc1NC(=O)CN1C(=O)NC2(CCCC2)C1=O | 1.91 | 0.66
Cc1nc(-c2ccccn2)sc1C(=O)O | 0.98 | -0.03
CCOC(=O)N1CCN(C(=O)CSc2ccc(-c3cccc(OC)c3)nn2)CC1 | 1.23 | 1.28
COCCn1c(=O)[nH]c2cc(C(=O)NCCN3CCN(c4ccccc4F)CC3)ccc2c1=O | 0.38 | 0.12
Cc1[nH]n(-c2cccc(Cl)c2)c(=O)c1/C=N/n1c(C)nc2ccccc2c1=O | 5.34* | -0.73*
CC(C)(O)C#Cc1ccc(CN2CCC(n3nccc3NC(=O)C3CC3)CC2)cc1 | 0.8 | 0.12
O=C(Nc1ccc2[nH]ccc2c1)c1ccc(F)cc1 | 1.5 | 0.48
COc1cccc(-c2csc(N3CCN(C(=S)Nc4ccccc4C)CC3)n2)c1 | 0.33 | -2.04
N#CC1=C2SCN(Cc3ccco3)CN2C(=O)CC1c1ccccc1F (stereo unspecified) | 0.65 | 1.08
O=C(CNC(=O)N1CC(=O)Nc2ccccc21)NCCc1c[nH]c2ccccc12 | 1.65 | 0.13
COC(=O)C(C)Oc1ccc(-c2nccc(-c3ccccn3)n2)cc1 (stereo unspecified) | 0.99 | -0.06
Cc1c(Cl)cccc1NC(=O)CN1CCC(NC(=O)C2CCCCC2)CC1 | 0.59 | -1.08
Cc1ccccc1C(=O)NC(NC(=S)Nc1ccc(S(N)(=O)=O)cc1)C(Cl)(Cl)Cl (stereo unspecified) | 0.06 | 2.23
CCn1nnnc1-c1ccc(OC)c(S(=O)(=O)NCCc2ccccc2)c1 | 0.68 | 1.32
C=CCn1c(SC)nnc1-c1ccc2ncccc2c1 | 0.68 | -1.03
(listing goes on)
SMILES | KCNQ2 enhance | KCNQ2 enhance baseline
CCCc1ccc(S(=O)(=O)N/N=C(/C)c2ccc3c(c2)OCO3)cc1 | 1.02 | 1.19
O=C(NCCN1CCOCC1)c1ccc(Cl)c(Cl)c1 | 0.71 | 0.15
CN(CC(=O)Nc1ccc(Cl)cc1)CC(=O)Nc1ccc(C(N)=O)cc1 | 0.61 | 3.07
CC(C(N)=O)N1C(=O)c2cccc3cccc1c23 (stereo unspecified) | 1.6 | 0.16
COCC(=O)Nc1ccc(Br)c(C)c1 | 0.17 | -0.04
Cc1ccc(S(=O)(=O)NC(=O)Nc2nc(-c3ccc(F)c(F)c3)cs2)cc1 | 1.65 | -1.94
Cc1cc(C)nc(SCc2nnc(SCC(=O)Nc3nccs3)n2Cc2ccco2)n1 | 0.6 | -0.26
COc1ccccc1NC(=O)CSc1nc2nccnc2c(=O)n1Cc1cccs1 | 0.16 | -0.51
CC(=O)N1CCc2cc(S(=O)(=O)NCCN3CCC(C)CC3)ccc21 | 0.25 | 1.51
Cc1cc(OCCN2CC(C)OC(C)C2)ccc1[N+](=O)[O-] (stereo unspecified) | 0.01 | 0.08
Cn1c(CNC(=O)c2ccco2)nnc1SCC(=O)N1c2ccccc2Sc2ccccc21 | 0.33 | -1.82
COc1ccc(S(=O)(=O)N(C)CC(=O)N2CCN(C)CC2)cc1C | 1.44 | -2.42
O=C(CNC(=O)COc1ccccc1)NCc1ccccc1F | 0.74 | -1.34
CC(C)(C)P(=O)(CO)c1ccccc1 (stereo unspecified) | 0.39 | -0.41
COc1ccc(OCC(O)CNC(=O)c2ccccc2C(=O)O)cc1 (stereo unspecified) | 0.74 | -0.28
COC(=O)c1ccc(Sc2ccccc2NS(=O)(=O)c2ccc(OC)cc2)nc1 | 1.36 | -0.21
COc1ccc(N2C(=O)NC(NS(=O)(=O)c3ccc(NC(C)=O)cc3)(C(F)(F)F)C2=O)cc1 (stereo unspecified) | 0.46 | -0.87
Cc1occc1C(=O)Nc1cc(=O)n(C)c(=O)n1C | 0.03 | -0.27
CCOc1cc(C(=O)CCC(=O)OCC(=O)Nc2ccc(C)c(S(=O)(=O)N(C)C)c2)ccc1O | 1.91 | 1.52
CCN1C(=O)C(CC(=O)Nc2ccc(OC)cc2)N(CCN2CCOCC2)C1=S (stereo unspecified) | 0.6 | -0.59

Compounds above that have a tert-butyl group:
SMILES | KCNQ2 enhance | KCNQ2 enhance baseline
Cc1occc1C(=O)Nc1sc2c(c1C(N)=O)CCC(C(C)(C)C)C2 (stereo unspecified) | 0.04 | 1.27
CC(C)(C)P(=O)(CO)c1ccccc1 (stereo unspecified) | 0.39 | -0.41

Other compounds:
SMILES | KCNQ2 enhance | KCNQ2 enhance baseline
COc1cc2[nH]c(=S)nc(NCc3cccnc3)c2cc1OC | 0.92 | -1.82
COc1ccc(CNC(=O)Cn2cc([N+](=O)[O-])cn2)cc1 | 0.15 | 0.91
CC(=O)N/C(=C\c1ccc(Cl)cc1)C(=O)O | 0.82 | 1.05
N#Cc1cc2c(nc1SCC(=O)Nc1sc3c(c1C#N)CCC3)CCCCC2 | 0.1 | -1.57
COc1ccc(C(C)=O)cc1CSCC(=O)O | 0.78 | -0.03
COc1ccc(C(=O)N/N=C(/C)c2cccc(NC(=O)C(F)(F)F)c2)cc1 | 0.04 | -0.06
COc1cc(/C=C/C(=O)Nc2ccc3nc4n(c(=O)c3c2)CCCC4)cc(OC)c1OC | 0.41 | 1.32
CCCOC1CCCN(Cc2cn(C)nc2-c2ccccc2F)C1 (stereo unspecified) | 0.83 | 0.68
CCOC(=O)c1ccc(-n2c(CCC(=O)O)ccc2-c2ccccc2)cc1 | 1.71 | 0.64
Cc1ccc(C)c(NC(=S)N2CCN(S(=O)(=O)c3ccccc3)CC2)c1 | 0.32 | -1.25

Reprinted at random: 6 records from the list.
SMILES | KCNQ2 enhance | KCNQ2 enhance baseline
COc1cc2[nH]c(=S)nc(NCc3cccnc3)c2cc1OC | 0.92 | -1.82
COc1cc(/C=C/C(=O)Nc2ccc3nc4n(c(=O)c3c2)CCCC4)cc(OC)c1OC | 0.41 | 1.32
CCOC(=O)c1ccc(-n2c(CCC(=O)O)ccc2-c2ccccc2)cc1 | 1.71 | 0.64
COc1ccc(C(=O)N/N=C(/C)c2cccc(NC(=O)C(F)(F)F)c2)cc1 | 0.04 | -0.06
CC(=O)N/C(=C\c1ccc(Cl)cc1)C(=O)O | 0.82 | 1.05
Cc1ccc(C)c(NC(=S)N2CCN(S(=O)(=O)c3ccccc3)CC2)c1 | 0.32 | -1.25

Remaining list, next part
SMILES | KCNQ2 enhance | KCNQ2 enhance baseline
COc1ccc(/C=C(\NC(=O)c2ccccc2)C(=O)N/N=C/c2cccnc2)cc1 | 0.5 | -1.75
COc1cc(NC(=O)/C=C/c2ccccc2[N+](=O)[O-])cc(OC)c1 | 1.06 | -0.67
CCN(CC)Cc1cc2[nH]c3c4ccc(Cl)cc4ncc3c2cc1OC | 3.04 | -1.86
Cc1ncc([N+](=O)[O-])n1CC(=O)Nc1ccc(Cl)cc1 | 1.45 | 0.98
Cc1cccc(S(=O)(=O)Nc2ccc(-c3ccc4nncn4n3)cc2)c1 | 0.01 | -1.7
CCC1COCCS(=O)(=O)N1Cc1ccccc1 (stereo unspecified) | 1.47 | -0.36
CCN(CC)CCCNC(=O)CCn1nc(-c2ccccc2)ccc1=O | 0.05 | -1.16
CO/N=C/NC(=O)NOCc1c(Cl)cccc1Cl | 0.15 | -0.71
S=c1[nH]cnc2sc(-c3ccccc3)cc12 | 24* | -0.69*
O=C(Cn1cccn1)N1CCCC(N2CCN(c3cccc(C(F)(F)F)c3)CC2)C1 (stereo unspecified) | 0.37 | 0.01

For convenience, three of the compounds above:
SMILES | KCNQ2 enhance | KCNQ2 enhance baseline
Cc1cccc(S(=O)(=O)Nc2ccc(-c3ccc4nncn4n3)cc2)c1 | 0.01 | -1.7
CCC1COCCS(=O)(=O)N1Cc1ccccc1 (stereo unspecified) | 1.47 | -0.36
CCN(CC)CCCNC(=O)CCn1nc(-c2ccccc2)ccc1=O | 0.05 | -1.16

Following part.
SMILES | KCNQ2 enhance | KCNQ2 enhance baseline
CN1C(=S)SC(N2OC3C(=O)N(c4ccccc4)C(=O)C3C2c2ccccc2)C1(C)C (stereo unspecified) | 0.78 | 2.05
CNc1ccccc1C(C)(C)c1cc(-c2cccc([N+](=O)[O-])c2)no1 | 0.89 | 0.17
CCCCCC(=O)Nc1nnc(CCc2ccccc2)s1 | 1.84 | -1.54
CCOC(=O)c1ccc(NC(=O)CCNS(=O)(=O)c2cc(Br)cnc2N)cc1 | 0.4 | 0.14
COc1ccc(/C=C2\SC(=O)N=C2N)cc1 | 1.33 | -0.08
O=C(Nc1ccc(F)cc1)c1ccc(Br)c(S(=O)(=O)N2CCOCC2)c1 | 0.31 | 0.02
CCOC(=O)N1CCN(C(=O)c2cccc(OC)c2O)CC1 | 0.85 | -0.66
CC(=C\C(=O)O)/C(=C\c1cccc2ccccc12)C(=O)O | 1.19 | -0.02
COc1ccc(Nc2ccccc2C(=O)O)cc1 | 2.42 | 1.7
Cc1cccc[n+]1CC(=O)/C=C1\N(C)c2ccccc2C1(C)C | 0.63 | -0.04
CC1=NN(c2ccc(N)cc2)C(=O)C1 | 0.08 | -0.48
CCOC(=O)C1=C(C)Nc2ccccc2N=C1NC(=O)Cc1ccc(Br)cc1 | 0.78 | -0.16
O=C(CCCNC(=O)c1ccc(Cl)cc1)NCc1ccccc1F | 0.07 | -0.74
CCc1ccc(-c2nc(CS(=O)CC(=O)O)c(C)o2)cc1 (stereo unspecified) | 0.4 | 2.03
CC(C)NC(=S)NC(=O)/C=C/c1ccc(F)cc1 | 0.96 | -0.43
O=c1[nH]c(C2CCN(S(=O)(=O)c3ccc4c(c3)OCCO4)CC2)nc2c1nnn2Cc1ccc(F)cc1 | 0.7 | 1.91
COc1cc(Br)c(C2C(C#N)=C(N)Oc3n[nH]c(-c4cccnc4)c32)cc1OC (stereo unspecified) | 1.1 | -0.52

These rows are one share of the data; count on the stated rates, not on these rows.
